Screening results from PubChem.
Yeast UUG start = modulators of yeast start codon fidelity, primary screen, whole organism, S. cerevisiae, single point, plate reader. 350,000 compounds, 0.13% hits. S. cerevisiae UUG-firefly luciferase reporter, luminescence/redox ratio. AID 602363, 2012. activity score, % at 18.7 µM;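 active = replicate mean at a twofold rise or more, about +100% in these data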;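 note: firefly luciferase made from a UUG start codon reports start codon fidelity; reporter light over untreated wells divided by growth signal over untreated wells; some hits fall short of that in this replicate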
PABP FP inh = PABP poly(A) RNA binding inhibitors, primary screen, biochemical, fluorescence polarization, uHTS. Polyadenylate-binding protein 1 (Homo sapiens), P11940. inhibition, % at 35 µM. 290,000 compounds, 1% hits. AID 2014, 2009;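 active = 50% or more with normal probe brightness, or confirmed in later tests; inconclusive = above 50% with abnormal brightness, or retests that disagree; inactive = below 50% or failed in later tests; about a fifth of its hits are not listed in these tables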;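 note: calls also rest on retests at 20 µM and on dose response follow-up; controls were probe without protein and protein plus probe with vehicle; some compounds called inactive have numbers as strong as hits; many hits fall short of the cut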
Target sequence (P11940 whole entry, looked up): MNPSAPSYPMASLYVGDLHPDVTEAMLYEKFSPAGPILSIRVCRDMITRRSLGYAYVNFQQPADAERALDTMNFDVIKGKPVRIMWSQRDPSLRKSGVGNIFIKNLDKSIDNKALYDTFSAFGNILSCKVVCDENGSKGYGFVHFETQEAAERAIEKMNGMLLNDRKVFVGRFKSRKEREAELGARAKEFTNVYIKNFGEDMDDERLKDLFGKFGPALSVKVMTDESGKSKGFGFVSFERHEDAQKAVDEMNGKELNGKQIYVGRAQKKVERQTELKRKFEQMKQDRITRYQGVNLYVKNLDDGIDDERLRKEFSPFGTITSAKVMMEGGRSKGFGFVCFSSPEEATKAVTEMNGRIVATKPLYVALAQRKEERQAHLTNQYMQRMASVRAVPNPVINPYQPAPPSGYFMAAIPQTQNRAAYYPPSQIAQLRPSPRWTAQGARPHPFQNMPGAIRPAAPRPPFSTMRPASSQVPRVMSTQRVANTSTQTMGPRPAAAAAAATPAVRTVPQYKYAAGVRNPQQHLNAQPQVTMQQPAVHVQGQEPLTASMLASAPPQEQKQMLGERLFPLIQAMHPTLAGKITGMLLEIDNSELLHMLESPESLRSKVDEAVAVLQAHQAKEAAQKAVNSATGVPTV
Env fusion inh = inhibitors of HIV-1 Env-driven cell-cell fusion, primary screen, HeLa-JRFL effector, CEM21 target cells, luciferase; inhibition, % at 12.3 µM; 360,000 compounds, 1.1% hits; AID 651610, 2012;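 active = mean replicate inhibition score of at least 50 and every replicate individually at or above 50; inconclusive = only one of the two criteria met; inactive = mean below 50 and not all replicates reaching 50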;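 note: 0% = plate neutral controls and 100% = maraviroc near 300 nM; one replicate is shown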
eIF4H FP inh = human eIF4H binding inhibitors, primary screen, translation initiation inhibitor project, biochemical, uHTS, fluorescence polarization; AID 2012, 2009; inhibition, % at 35 µM; eIF4H fluorescence polarization binding assay; 290,000 compounds, 0.94% hits;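 active = 50% or more with normal probe brightness, or confirmed in later tests; inconclusive = above 50% with abnormal brightness, or retests that disagree; inactive = below 50% or failed in later tests; about a fifth of its hits are not listed in these tables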;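 note: calls also rest on retests at 20 µM and on dose response follow-up; 0% = protein and probe with vehicle and 100% = probe without protein; strong numbers were not always called active; many hits fall short of the cut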
CSC inhib = cancer stem cell viability inhibitors, primary screen, luminescence | cancer stem cell-like cells viability | inhibition, % at 7.5 µM | 300,000 compounds, 1.1% hits;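 active = mean at 75% or more and at least half the replicates too; inconclusive = mean and replicates disagree; tested in HMLE shEcad cells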;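 note: 0% = median of negative and 100% = median of positive control wells; the first replicate is given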
MT1-MMP act inh = blockers of MT1-MMP proenzyme processing, primary screen, HT1080 RFP-PRO-GFP cells, GFP/RFP fluorescence | GFP/RFP ratio fluorescence, overnight; percent of plate control window, DMSO zero | 360,000 compounds, 0.061% hits | GFP/RFP ratio change, % at 20 µM | Matrix metalloproteinase-14 (Homo sapiens), P50281;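 active = GFP/RFP ratio change of at least 30% with cell ATP level not reduced by more than half and red fluorescence within 50% of control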; note: strong numbers were not always called active
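system = RFP-PRO-GFP reporter HT1080 cells | dosing = 20 µM single dose, 1% DMSO | timing = overnight cell settling, then overnight compound exposure, 37 °C, 5% CO2 | read-out basis = GFP/RFP fluorescence ratio | controls = DMSO and RFP-L50D-GFP cell wells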
Rce1 inh = yeast Rce1p protease inhibitors, primary screen, biochemical, fluorescence, cell-free homogeneous | yeast membranes, quenched prenylated peptide cleavage fluorescence | calls only | 290,000 compounds, 0.27% hits | AID 2563, 2010;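 active = fall in fluorescence gain of 50% or more versus controls, with final raw signal at or below 3038400; inconclusive = same 50% fall but final raw signal above 3038400; inactive = fall in fluorescence gain under 50%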;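 note: plate controls were neutral control wells for no effect and wells lacking membranes for full effect; tested at 10 µM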
Target sequence (Q03530 whole entry, looked up): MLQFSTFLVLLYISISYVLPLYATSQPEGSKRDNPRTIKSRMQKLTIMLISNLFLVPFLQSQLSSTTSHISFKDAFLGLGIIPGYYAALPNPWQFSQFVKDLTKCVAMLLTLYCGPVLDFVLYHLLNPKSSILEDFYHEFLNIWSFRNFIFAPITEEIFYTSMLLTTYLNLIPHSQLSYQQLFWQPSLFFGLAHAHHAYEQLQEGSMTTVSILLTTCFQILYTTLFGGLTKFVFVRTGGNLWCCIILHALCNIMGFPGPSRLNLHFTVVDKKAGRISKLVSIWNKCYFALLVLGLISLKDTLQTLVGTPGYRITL
eIF4H FP inh retest = also measured in eIF4H FP inh; calls as there; inhibition, %; compound at 20 µM; confirmation average;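 mean of two retest wells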
PABP FP inh retest = further read-out of PABP FP inh, marked with its call; inhibition, %; compound at 20 µM; confirmation repeats;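 mean of two retest wells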
MT1-MMP act inh RFP = also measured in MT1-MMP act inh; calls as there; RFP signal change, %; measured here: RFP expression control read;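 0 = vehicle wells; hits needed this value within 50% of zero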
The depositor's hits bear a star; i = inactive; ? = inconclusive; · = not tested or not shown.

SMILES	Yeast UUG start	PABP FP inh	Env fusion inh	eIF4H FP inh	CSC inhib	MT1-MMP act inh	MT1-MMP act inh RFP	Rce1 inh	others
CN(Cc1cccc(F)c1)C(=O)C(c1ccccc1)c1ccccc1	-15	4	16	-2	-2	-5	-6	i
CNC(=S)NNC(=O)c1cccc(N(C)C)c1	·	-46	13	5	-7	4	4	i
CCN(C(=O)COC(=O)C(C)(C)Oc1ccc(Cl)cc1)c1c(N)n(Cc2ccccc2)c(=O)[nH]c1=O	2	·	2	·	·	2	-3	·
COCCN(C(=O)CN1CCCc2ccccc21)c1c(N)n(Cc2ccccc2)c(=O)[nH]c1=O	2	?	·	?	-9	-48	25	i
CC1(C(=O)Nc2cccc3c2CCCC3)CCN1C(=O)C1(c2ccccc2)CC1 (stereo not given)	-6	·	28	·	·	-2	-8	·
Cc1ccc(NC(=O)c2ccc3c(c2)CCN3S(C)(=O)=O)cc1C	-11	2	-33	14	-7	5	1	·
O=C(Nc1cccnc1)c1ccc(Cl)c(S(=O)(=O)N2CCOCC2)c1	-5	1	-13	-8	3	-1	0	i
O=C(c1ccc(S(=O)(=O)c2ccccc2)cc1)N1CCCCCC1	·	17	17	4	-33	-1	-6	i
COc1cccc(CC2(CO)CCCN(Cc3cnn(-c4ccccc4)c3)C2)c1 (stereo not given)	·	-4	24	4	4	4	2	i
CCNS(=O)(=O)c1cc(OC)ccc1OC	-12	-9	-4	-4	-10	1	1	i
c1ccc(NNC2=NCCCCC2)cc1	-8	-3	-9	1	84*	-1	2	i
Cc1ccc(S(=O)(=O)c2nc(-c3ccccc3)oc2NCCN2CCOCC2)cc1	3	4	·	-2	6	9	4	i

The list goes on (three carried over from the part before).
SMILES	Yeast UUG start	PABP FP inh	Env fusion inh	eIF4H FP inh	CSC inhib	MT1-MMP act inh	MT1-MMP act inh RFP	Rce1 inh	others
CCNS(=O)(=O)c1cc(OC)ccc1OC	-12	-9	-4	-4	-10	1	1	i
c1ccc(NNC2=NCCCCC2)cc1	-8	-3	-9	1	84*	-1	2	i
Cc1ccc(S(=O)(=O)c2nc(-c3ccccc3)oc2NCCN2CCOCC2)cc1	3	4	·	-2	6	9	4	i
Cc1cc(Cl)ccc1NNC(=O)c1snnc1C	·	8	8	-2	75*	1	3	i
Cc1occc(=O)c1OCc1ccc(Cl)cc1Cl	-19	-7	-19	-10	-2	-1	-2	i
O=C(CC(=O)c1cccnc1)c1ccccc1	-18	·	-15	·	·	1	3	·
COc1ccc(-c2cc(-c3ccccc3)nc(SC(C)C(=O)O)c2C#N)cc1 (stereo not given)	-17	13	1	-4	16	-1	-6	i
NS(=O)(=O)c1cccc(NC(=O)Nc2ccc(Cl)cc2)c1	-17	9	-25	-9	-2	·	·	·
CC(=O)Nc1cccc(CP(=O)(c2ccccc2)c2ccccc2)c1	·	-3	4	4	-12	1	1	i
Cc1ccc(OCCNC(=O)c2cccc(C)c2)cc1	-16	-6	1	-5	0	0	2	i
CCCCN(C1CCS(=O)(=O)C1)S(=O)(=O)c1cccs1 (stereo not given)	12	·	-5	·	7	-4	0	i
CC(=O)c1sc(Nc2ccccn2)nc1C	-19	-7	·	-2	-2	-5	-3	i
O=C1CC(c2ccc(O)c(O)c2)Oc2cc(O)cc(O)c21 (stereo not given)	20	26	·	-2	3	4	-9	·
COc1ccc(CNC(=O)CSCc2ccccc2Cl)cc1	·	7	-10	3	·	2	2	i
Cc1cc(C)n(-c2ncc(-c3ccccc3)nn2)n1	26	1	-111	-6	-1	0	2	i
O=S(=O)(c1ccc2nc(Cc3ccccc3)[nH]c2c1)N1CCOCC1	-29	21	·	-3	-1	2	2	i
Cc1oc(C)c2c(=O)ccc3c(c12)OC(N)=C(C#N)C3c1ccccc1 (stereo not given)	-10	-5	·	78	-3	-52	17	i	eIF4H FP inh retest=2;PABP FP inh retest=1
CCCCn1c(-c2ccc(Cl)c(Cl)c2)nc2cc3[nH]c(=O)c(C(C)C)nc3cc21	-38	24	-128	38	47	-5	-5	i
COc1cccc(/C=C/C(=O)N(C)CC(=O)Nc2ccc(Cl)c(C(F)(F)F)c2)c1	-12	·	-15	·	-3	-9	-2	i
CCOc1ccccc1C(=O)NCC(=O)OCC(=O)NCCc1ccc(S(N)(=O)=O)cc1	555*	-2	·	4	-12	-3	0	i
Cc1ccc(C)c(NS(=O)(=O)c2cc(C(=O)NCCC3=CCCCC3)ccc2C)c1	8	6	·	-4	·	-21	-20	i
CCN1CCc2c(OCC(=O)N3CCCc4ccccc43)cccc2C1=O	·	12	20	6	-5	-2	-4	i
O=C(c1ccc([N+](=O)[O-])cc1)N1CCN(Cc2ccccc2)CC1	-4	-3	-12	-2	-3	4	6	i
CC(C)(C)c1ccc(CC(=O)N2CCC2(C)C(=O)NS(=O)(=O)c2ccc(Cl)s2)cc1 (stereo not given)	-6	·	12	·	·	1	5	·
O=C(Nc1ccccc1Oc1cccnc1)C1CCCN(Cc2cccc(Cl)c2)C1 (stereo not given)	-12	-7	1	-11	-1	-4	0	i
CCOC(=O)C1CCN(Cc2ccc(OC)cc2OC)CC1	1	5	-25	-1	-11	-2	-2	i
O=C(NC1CCCCCC1)c1ccc(OCC2CCCO2)cc1 (stereo not given)	·	-8	-38	-4	4	2	1	i
CC(C)OCCCNC(=O)c1ccc(Br)cc1	-15	5	·	-4	5	7	2	i
Cc1ccc(-c2nnc(SCC(=O)NNC(=O)COc3ccccc3C)n2C)cc1	·	33	15	-11	1	7	4	i
Cc1cc(C)nc(N2CCCC(C(=O)Nc3nnc(C)s3)C2)n1 (stereo not given)	-21	4	1	2	-20	0	6	i
CCOC(=O)c1c(C)[nH]c(C(=O)OCC(=O)Nc2ccc(OCC)cc2)c1C	-25	-8	-15	10	-8	8	4	i
O=C(NCc1nc2ccccc2[nH]1)C1=C[C@@H](c2ccccc2)C[C@@H](OCc2ccc(CO)cc2)O1	-6	-6	-5	0	-19	1	-1	i
CCOC(=O)c1ccc(S(=O)(=O)NCCN2CCOCC2)cc1	-6	1	2	70	2	0	-1	i	eIF4H FP inh retest=21;PABP FP inh retest=26
CC(C)c1ccc(/C=C/C(=O)Nc2nncs2)cc1	-15	7	-64	6	32	6	-5	i
O=[N+]([O-])c1ccc(N2CCN(S(=O)(=O)c3ccccc3[N+](=O)[O-])CC2)cc1N1CCc2ccccc2C1	-20	-1	7	-3	-13	-1	2	i
Cc1ccc(-n2c(O)c(C=NC3CCS(=O)(=O)C3)c3ccccc3c2=O)cc1C (stereo not given)	0	-6	·	-14	4	-1	0	i
CCOC(=O)c1sc(=NC(=O)c2ccc(C)cc2)n(C)c1C	·	-7	-52	5	-16	-2	2	i
COc1ccc(NCc2ccc(OC)c(OC)c2)cc1	·	-2	·	-4	9	·	·	i
OC[C@@H](O)C1OC2NC(=S)OC2C1O (stereo not given in full)	-18	4	1	-12	-10	-3	1	i
Clc1cc(Cl)cc(C2=NC(Cc3ccccc3)CO2)c1 (stereo not given)	-1	·	-19	·	-9	-1	-3	i
CCOc1ccc(CC(=O)N2CCC3(CC2)NCCc2[nH]cnc23)cc1	-17	·	1	·	-6	-2	1	i
CCN1CCc2c(sc(NC(=O)Nc3ccc(Cl)c(Cl)c3)c2C(N)=O)C1	-13	0	-10	?	27	-186	-7	·
CC(=O)Nc1ccc(S(=O)(=O)N2CCC(=O)Nc3ccccc32)cc1	·	1	4	1	-8	-4	7	i
CCOc1ccc(CCNS(=O)(=O)c2cn(C)cn2)cc1OCC	-4	-4	-16	-7	25	-3	0	i
O=C(c1cnccn1)N1CCN(S(=O)(=O)c2cccc(Cl)c2)CC1	·	·	-3	·	-17	2	-3	·
CS(=O)(=O)N(CC(=O)Nc1ccccc1C(=O)N1CCCC1)c1cccc([N+](=O)[O-])c1	·	-11	18	-8	-6	2	2	i
CNC(=O)CSCCn1c(SCC(=O)NC)nc2ccccc2c1=O	13	-3	-33	0	-22	4	2	i
COc1ccc(N2CCN(C(=O)CSc3nnc4c(C)cc5ccc(C)c(C)c5n34)CC2)cc1	13	-7	-64	3	-14	0	-4	i
CCN1CCN(c2c(Cl)cccc2NC(=O)c2cccs2)CC1	-10	8	-3	-7	7	-1	3	i
Cn1cc(Br)c(C(=O)Nc2ncc(Br)s2)n1	·	6	-22	24	2	1	5	i
CCc1cc(=O)oc2cc(C)cc(OCC(=O)N3CCC(C(=O)O)CC3)c12	-5	11	·	-3	5	-1	-1	i
CC(c1ccccc1)C1CC(=O)N(Cc2ccco2)C1=O (stereo not given)	-7	-1	-65	2	-6	-4	2	i
C=C(C)COc1ccc(-c2n[nH]c(C)c2Oc2ccccc2OC)c(O)c1	-28	6	·	0	-7	-6	-3	i
O=C1C=C(c2cccc3c2sc2ccccc23)C[C@@H](c2ccc(Cl)cc2)C1	-19	·	2	·	14	-2	-2	·
CCCC1=NN(c2ccc([N+](=O)[O-])cc2)C(=O)/C1=C/N(C)C	·	-1	9	9	5	-2	1	i
Cc1cccc(N2CCN(C(=O)c3ccc(Cl)c(S(=O)(=O)N4CCc5ccccc5C4)c3)CC2)c1C	·	-2	·	2	15	-11	-12	i
Cc1ccc(NC(=O)c2cccc(C(=O)Nc3ccc(C)cc3C(=O)O)c2)c(C(=O)O)c1	-14	16	-2	-5	3	0	0	i
COc1ccc(NC(=O)N2CCC(CO)(CC3CCCCO3)CC2)c(OC)c1 (stereo not given)	7	-1	1	15	2	9	0	i
CCN(CC)S(=O)(=O)c1ccc(N2CCOCC2)c(NCC(=O)Nc2ccc(F)cc2)c1	·	-7	9	1	-8	3	2	i
Cc1cc(-n2c(C)cc(C(=O)CSc3ccc4c(c3)OCCO4)c2C)no1	-14	1	-25	3	-2	0	3	i
Cc1ccc(S(=O)(=O)NC(=O)NC2=NC(C)(C)N(c3ccc(Cl)c(Cl)c3)C(N)=N2)cc1	0	·	5	·	·	3	4	·
COc1ccc(S(=O)(=O)N2CCC(C(=O)NCCC(=O)NCc3cccnc3)CC2)cc1	-4	·	17	·	·	2	3	·
O=C1Cc2cccc3cccc1c23	-8	1	·	-1	-2	-3	4	i

Continued.
SMILES	Yeast UUG start	PABP FP inh	Env fusion inh	eIF4H FP inh	CSC inhib	MT1-MMP act inh	MT1-MMP act inh RFP	Rce1 inh	others
Cc1nn(C)c(C(=O)Sc2cccc(Cl)c2)c1[N+](=O)[O-]	·	-2	16	-3	16	-2	-1	i
CSc1ccc(CN(C)Cc2cc(=O)oc3c(C)c(C)ccc23)cc1	4	12	16	-5	3	-2	-8	i
S=C(NCc1ccccn1)Nc1cccc(Cl)c1	-26	-9	·	-5	-7	-7	-5	i
COc1ccc(C(NC(=O)CN2C(=O)NC3(CCc4ccccc43)C2=O)c2ccccc2)cc1 (stereo not given)	6	·	0	·	·	8	-2	·
Cc1cc2ncn(CCC(=O)NC3CCCC3)c2cc1C	·	-4	-3	5	-15	3	5	i
Cc1cccn2c(=O)c(/C=C(\C#N)C(N)=O)c(N3CCN(c4ccccc4)CC3)nc12	-1	?	-4	?	-10	-9	-4	i

This is a subset; the hit share may differ from the screen's.
